High-throughput results as filed in PubChem BioAssay.
PABP polyA inh – PABP-poly(A) binding inhibition | P11940 | AID 2014 | hit rate 1% among 290,000 | PABP-poly(A) RNA binding, fluorescence polarization | inhibition, % at 35 µM;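 active = 50% or more with normal probe brightness, or confirmed in later tests; inconclusive = above 50% with abnormal brightness, or retests that disagree; inactive = below 50% or failed in later tests; about a fifth of its hits are not listed in these tables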;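 note: calls also rest on retests at 20 µM and on dose response follow-up; controls were probe without protein and protein plus probe with vehicle; some compounds called inactive have numbers as strong as hits; many hits fall short of the cut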
Target sequence (P11940 whole entry, looked up): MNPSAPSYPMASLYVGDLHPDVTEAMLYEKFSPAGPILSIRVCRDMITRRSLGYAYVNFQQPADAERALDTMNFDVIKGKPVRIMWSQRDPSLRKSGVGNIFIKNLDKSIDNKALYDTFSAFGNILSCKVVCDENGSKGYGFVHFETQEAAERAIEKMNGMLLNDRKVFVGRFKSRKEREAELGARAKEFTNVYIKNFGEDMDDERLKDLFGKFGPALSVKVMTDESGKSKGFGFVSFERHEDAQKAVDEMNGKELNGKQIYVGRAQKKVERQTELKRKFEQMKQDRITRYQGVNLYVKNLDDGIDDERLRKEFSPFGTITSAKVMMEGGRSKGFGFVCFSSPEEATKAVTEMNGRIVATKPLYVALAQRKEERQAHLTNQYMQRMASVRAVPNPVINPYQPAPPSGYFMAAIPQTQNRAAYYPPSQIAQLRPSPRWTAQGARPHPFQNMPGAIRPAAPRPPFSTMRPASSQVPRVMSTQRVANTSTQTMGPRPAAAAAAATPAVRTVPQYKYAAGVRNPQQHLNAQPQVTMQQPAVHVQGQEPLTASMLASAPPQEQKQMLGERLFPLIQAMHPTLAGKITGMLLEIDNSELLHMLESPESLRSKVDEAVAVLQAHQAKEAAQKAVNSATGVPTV
eIF4H inh – inhibitors of RNA binding by human eIF4H; Q15056; eIF4H fluorescence polarization binding assay; inhibition, % at 35 µM; hit rate 0.94% among 290,000; AID 2012;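 active = 50% or more with normal probe brightness, or confirmed in later tests; inconclusive = above 50% with abnormal brightness, or retests that disagree; inactive = below 50% or failed in later tests; about a fifth of its hits are not listed in these tables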;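 note: calls also rest on retests at 20 µM and on dose response follow-up; 0% = protein and probe with vehicle and 100% = probe without protein; strong numbers were not always called active; many hits fall short of the cut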
Yeast UUG start – modulators of start codon recognition fidelity in yeast; activity score, % at 18.7 µM; hit rate 0.13% among 350,000; AID 602363; S. cerevisiae UUG-firefly luciferase reporter, luminescence/redox ratio;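 active = replicate mean at a twofold rise or more, about +100% in these data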;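 note: firefly luciferase made from a UUG start codon reports start codon fidelity; reporter light over untreated wells divided by growth signal over untreated wells; some hits fall short of that in this replicate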
Env fusion inh – inhibitors of HIV Env-mediated cell fusion; HeLa-JRFL Env/CEM21 cell fusion, luciferase; inhibition, % at 12.3 µM; hit rate 1.1% among 360,000; AID 651610;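 active = mean replicate inhibition score of at least 50 and every replicate individually at or above 50; inconclusive = only one of the two criteria met; inactive = mean below 50 and not all replicates reaching 50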;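 note: 0% = plate neutral controls and 100% = maraviroc near 300 nM; one replicate is shown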
Rce1 inh – yeast Ras-converting enzyme inhibition | Q03530 | yeast membranes, quenched prenylated peptide cleavage fluorescence | calls only | hit rate 0.27% among 290,000;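 active = fall in fluorescence gain of 50% or more versus controls, with final raw signal at or below 3038400; inconclusive = same 50% fall but final raw signal above 3038400; inactive = fall in fluorescence gain under 50%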;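 note: plate controls were neutral control wells for no effect and wells lacking membranes for full effect; tested at 10 µM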
MT1-MMP act inh – MT1-MMP (human) activation inhibition; HT1080 RFP-PRO-GFP cells, GFP/RFP ratio fluorescence, overnight; percent of plate control window, DMSO zero; GFP/RFP ratio change, % at 20 µM; hit rate 0.061% among 360,000;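 active = GFP/RFP ratio change of at least 30% with cell ATP level not reduced by more than half and red fluorescence within 50% of control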; note: strong numbers were not always called active
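system = RFP-PRO-GFP reporter HT1080 cells | dosing = 20 µM single dose, 1% DMSO | timing = overnight cell settling, then overnight compound exposure, 37 °C, 5% CO2 | read-out basis = GFP/RFP fluorescence ratio | controls = DMSO and RFP-L50D-GFP cell wells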
CSC inhib – blocks cancer stem cells. hit rate 1.1% among 300,000. cancer stem cell-like cells viability, luminescence. inhibition, % at 7.5 µM;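 active = mean at 75% or more and at least half the replicates too; inconclusive = mean and replicates disagree; tested in HMLE shEcad cells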;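 note: 0% = median of negative and 100% = median of positive control wells; the first replicate is given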
eIF4H inh retest – recorded beside eIF4H inh, whose call it bears; inhibition, %; compound at 20 µM; confirmation average;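 mean of two retest wells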
PABP polyA inh retest – recorded beside PABP polyA inh, whose call it bears; inhibition, %; compound at 20 µM; confirmation repeats;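 mean of two retest wells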
MT1-MMP act inh RFP – recorded beside MT1-MMP act inh, whose call it bears; RFP signal change, %; measured here: RFP expression control read;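 0 = vehicle wells; hits needed this value within 50% of zero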
The depositor's hits bear a star; i = inactive; ? = inconclusive; . = no result given.

SMILES	PABP polyA inh	eIF4H inh	Yeast UUG start	Env fusion inh	Rce1 inh	MT1-MMP act inh	MT1-MMP act inh RFP	CSC inhib	others
Cc1ccc(S(=O)(=O)N2CCCCC2)cc1C(=O)Nc1ccccn1	8	-2	-3	-26	i	-1	0	0
CCCCn1c(N)c(N(CCOC)C(=O)CSc2ccc([N+](=O)[O-])cc2)c(=O)[nH]c1=O	.	.	-1	.	.	-4	0	-6
NC(=O)C1=C[C@@H](c2ccccc2)C[C@@H](OCc2ccc(CO)cc2)O1	-7	-2	-11	3	i	2	-4	-8
O=C(NC1CC(=O)c2sccc21)c1cccc(C(F)(F)F)c1 (stereo unspecified)	-9	-10	-44	18	i	9	-5	5
O=C(COC(=O)[C@@H]1CCCN1C(=O)c1cccs1)Nc1cccc([N+](=O)[O-])c1	.	.	-1	-8	.	3	1	-13
CC(=O)c1ccc(N(C(=O)Cn2nnc3ccccc32)C(C(=O)NC2CCCCC2)c2cn(C)nc2C)cc1 (stereo unspecified)	26	1	.	.	i	8	4	.
O=C(N/N=C/c1cccs1)/C(=C/c1ccccc1)NC(=O)c1ccccc1	-7	-4	0	1	i	-2	8	1
Cc1ccccc1C(=O)NCC(=O)OCCCOC(=O)CNC(=O)c1ccccc1C	.	.	.	-1	i	3	4	.
O=C1CCC(C(=O)NCc2ccccc2)N1 (stereo unspecified)	-2	-6	-21	-6	i	1	-1	4
CCCOc1ccc(CNC(=S)Nc2ccccc2)cc1Cl	-5	6	-33	9	i	3	-10	5
CC(C)(C)NS(=O)(=O)c1ccc2c(c1)oc(=O)c1cc(S(=O)(=O)NC(C)(C)C)ccc12	-4	3	-15	26	i	3	1	-6
O=C(COC(=O)/C=C/c1cccc(F)c1)NC1CCCC1	.	.	-2	-14	.	4	2	.
CC(=O)NC(NC(=S)Nc1cccc(Br)c1)C(Cl)(Cl)Cl (stereo unspecified)	-1	-9	-18	-13	i	2	-2	4
CC(=O)c1cccc(NC(=O)N2CCOCC2)c1	-17	-4	-5	-16	i	-1	4	-7
COc1ccc([N+](=O)[O-])cc1Nc1ncnc2ccccc12	-4	4	-9	1	i	5	-1	-15
CC1(Oc2cccc(Cl)c2)CCN(Cc2ccc(OC(F)(F)F)cc2)C1 (stereo unspecified)	.	.	4	-3	.	4	7	.
COc1ccccc1N(CC(=O)NCc1ccccc1C)S(=O)(=O)c1ccc(C)cc1	5	7	-19	21	i	-2	-9	1
O=c1nc(N2CCOCC2)nc2n1CCO2	4	-2	-16	.	i	3	1	-4
CCc1nc2ccc(C(=O)Nc3cc(-c4ccccc4)ccc3OC)cn2c1N(C)C(=O)c1cccc(OC)c1	.	.	-10	2	.	-6	-9	.
Cc1ccc(S(=O)(=O)N(CCC(=O)NCc2ccccc2F)c2ccccc2)cc1	.	.	2	-18	.	-3	1	9
O=C(CCN1C(=O)C2CCCCC2C1=O)Nc1nc2ccc(F)cc2s1 (stereo unspecified)	.	.	-17	-67	.	-2	2	.
Cc1ccc(CNC(=O)CCCn2nc(C)n3ccnc3c2=O)cc1	-2	-8	-21	8	i	-1	4	-10
O=C(NC(=S)NC(c1ccccc1)c1ccncc1)c1ccccc1 (stereo unspecified)	18	3	-26	-4	i	-8	-7	4
O=C(Nc1ccccc1Oc1ccccc1)c1cnccn1	-8	-8	-26	-118	i	-3	1	-3
O=C(NCc1ccccn1)c1[nH]c(C(F)(F)F)nc1-c1ccccc1	.	.	-24	1	.	7	8	.

Fetched by compound from above (five):
SMILES	PABP polyA inh	eIF4H inh	Yeast UUG start	Env fusion inh	Rce1 inh	MT1-MMP act inh	MT1-MMP act inh RFP	CSC inhib	others
COc1ccccc1N(CC(=O)NCc1ccccc1C)S(=O)(=O)c1ccc(C)cc1	5	7	-19	21	i	-2	-9	1
O=C(NCc1ccccn1)c1[nH]c(C(F)(F)F)nc1-c1ccccc1	.	.	-24	1	.	7	8	.
O=C(COC(=O)[C@@H]1CCCN1C(=O)c1cccs1)Nc1cccc([N+](=O)[O-])c1	.	.	-1	-8	.	3	1	-13
CCCOc1ccc(CNC(=S)Nc2ccccc2)cc1Cl	-5	6	-33	9	i	3	-10	5
O=C(NC1CC(=O)c2sccc21)c1cccc(C(F)(F)F)c1 (stereo unspecified)	-9	-10	-44	18	i	9	-5	5

Compounds listed so far containing a halogen (8):
SMILES	PABP polyA inh	eIF4H inh	Yeast UUG start	Env fusion inh	Rce1 inh	MT1-MMP act inh	MT1-MMP act inh RFP	CSC inhib	others
O=C(NC1CC(=O)c2sccc21)c1cccc(C(F)(F)F)c1 (stereo unspecified)	-9	-10	-44	18	i	9	-5	5
CCCOc1ccc(CNC(=S)Nc2ccccc2)cc1Cl	-5	6	-33	9	i	3	-10	5
O=C(COC(=O)/C=C/c1cccc(F)c1)NC1CCCC1	.	.	-2	-14	.	4	2	.
CC(=O)NC(NC(=S)Nc1cccc(Br)c1)C(Cl)(Cl)Cl (stereo unspecified)	-1	-9	-18	-13	i	2	-2	4
CC1(Oc2cccc(Cl)c2)CCN(Cc2ccc(OC(F)(F)F)cc2)C1 (stereo unspecified)	.	.	4	-3	.	4	7	.
Cc1ccc(S(=O)(=O)N(CCC(=O)NCc2ccccc2F)c2ccccc2)cc1	.	.	2	-18	.	-3	1	9
O=C(CCN1C(=O)C2CCCCC2C1=O)Nc1nc2ccc(F)cc2s1 (stereo unspecified)	.	.	-17	-67	.	-2	2	.
O=C(NCc1ccccn1)c1[nH]c(C(F)(F)F)nc1-c1ccccc1	.	.	-24	1	.	7	8	.

Later entries.
SMILES	PABP polyA inh	eIF4H inh	Yeast UUG start	Env fusion inh	Rce1 inh	MT1-MMP act inh	MT1-MMP act inh RFP	CSC inhib	others
Cc1ccc(NC(=S)NC(=O)c2cccs2)cc1F	.	.	-1	.	.	1	-1	-8
CCOC(=O)c1cc2c(ccn2-c2ccc(F)cc2)n1CC(=O)NC(C)(C)C	2	-9	.	.	i	.	.	-4
Cc1ccc2c(CC(=O)Nc3cccc(S(=O)(=O)N4CCOCC4)c3)coc2c1	15	4	4	15	i	4	3	-19
COCCN(Cc1ccccc1)C(=O)c1ccc(C(=O)c2ccccc2)cc1	.	.	6	-14	.	2	-1	5
O=C(NCCCc1ccc(F)cc1)C1CCC(=O)N(CCN2CCOCC2)C1 (stereo unspecified)	-13	-11	-7	-6	i	4	4	-11
Cc1cc(C(O)c2ncc(-c3cccc4ccccc34)[nH]2)ccc1F (stereo unspecified)	.	.	-18	-22	.	-3	1	.
COc1cc(C(c2nnnn2C2CCCC2)N2CCN(C)CC2)cc(OC)c1OC (stereo unspecified)	3	-4	-5	.	i	3	6	-7
N#C/C(=C/c1ccc(N2CCOCC2)o1)C(=O)N1CCOCC1	4	?	.	8	i	-34	0	-45
CCOC(=O)C1(CC2CCCCO2)CCN(C2CCSCC2)CC1 (stereo unspecified)	1	0	11	5	i	-2	2	-8
CCCCNS(=O)(=O)C1CCS(=O)(=O)C1 (stereo unspecified)	13	-9	-11	.	i	1	4	2
Cn1nnnc1SCC(=O)Nc1ccccc1C(=O)NC1CC1	9	-7	.	.	i	5	7	0
CC(C)CC(=O)Nc1cccc(-c2csc(-c3ccccc3)n2)c1	10	-3	.	.	i	0	-4	.
COc1cccc(NC(=O)CCc2nnc3ccc(N4CCC(C)CC4)nn23)c1	1	0	-19	1	i	-1	1	0
N#CCC(=O)N/N=C/c1cn(Cc2cccc3ccccc23)c2ccccc12	2	-6	-18	-118	i	-5	-17	58
O=C(COC(=O)c1cccc(S(=O)(=O)NCc2ccccc2)c1)c1ccc2c(c1)OCCO2	-12	2	.	12	i	5	-1	-5
C=CCn1c(-c2c(C)nc3cc(C)ccn23)n[nH]c1=S	-12	-5	-4	-31	i	-2	0	6
Cc1ccc(CN(Cc2cc3cc(C)ccc3[nH]c2=O)C(=O)N2CCOCC2)cc1	-16	-5	-4	-26	i	0	5	-6
CC(C)Oc1ccc(Br)cc1C(=O)N/N=C/c1c[nH]c2ccccc12	6	16	-6	13	i	5	-10	42
O=C(Nc1ccc(Cl)c(S(=O)(=O)N2CCCCC2)c1)C1=COCCO1	.	.	7	-8	i	11	3	35
CC1Cc2ccccc2N1C(=O)CSc1nc(-c2ccccc2)cs1 (stereo unspecified)	4	-5	.	5	i	4	0	13
CCCCCCCCOC(=O)c1c(CSC(=N)N)n(C)c2cc(Br)c(OC(C)=O)cc12	-46	-36	-17	?	i	-11	-11	76*
CCOC(=O)C1CCN(C(=O)c2ccccc2NS(=O)(=O)c2ccccc2)CC1	3	7	-1	6	i	-5	-2	2
O=C(COc1ccccc1[N+](=O)[O-])NNC(=O)Nc1cccc2ccccc12	11	9	.	13	i	-1	0	6
Cc1cc(=O)c2c(C)ccc(C)c2[nH]1	7	9	-2	-5	i	5	3	-11
Cc1ccc(CNc2ccc(N3CCOCC3)c(C(=O)O)c2)s1	0	2	-17	-48	i	3	1	3
Additional records follow.
SMILES	PABP polyA inh	eIF4H inh	Yeast UUG start	Env fusion inh	Rce1 inh	MT1-MMP act inh	MT1-MMP act inh RFP	CSC inhib	others
NS(=O)(=O)c1ccc(NS(=O)(=O)c2ccc3c(c2)OCCO3)cc1	0	-4	-24	-7	i	0	-4	1
COc1cccc(CC(=O)N2CCN(S(=O)(=O)c3ccc(Br)cc3)CC2)c1	.	.	16	.	i	4	2	.
O=S(=O)(c1ccccc1)N1CCN(C2CCCCCCC2)CC1	12	1	-12	.	i	1	-4	44
CC(C)(C)OC(=O)NCc1ccc(NC(=O)c2nc[nH]c2C(=O)N[C@@H](Cc2ccccc2)C(=O)OC(C)(C)C)cc1	-5	6	-1	41	i	-2	-11	-17
CCOC(=O)N1CCN(C(=O)COc2cc(=O)n(CC)c3ccccc23)CC1	9	6	-23	9	i	-2	3	9
O=C(c1ccco1)N1CCN(Cc2cccnc2)CC1	17	13	-3	.	i	3	6	6
CCOCCCNC(=S)N1CCC(NC(=O)C2CCCCC2)CC1	-2	-9	.	1	i	0	4	10
CC(C)NC(=O)N(C)C[C@@H]1OCc2ccccc2-c2c(n(C)c3ccccc23)C(=O)N([C@@H](C)CO)C[C@@H]1C	.	.	-2	?	.	-2	-1	.
Cc1ccc(S(=O)(=O)N[C@H](C(=O)N2CCC(C(=O)NCC(=O)O)CC2)C(C)C)cc1	3	-3	.	.	i	-2	-2	-3
COCCN(CC(=O)Nc1cccc(C)c1C)C(=O)CN1C(=O)NC2(CCCCC2)C1=O	.	.	92	-11	.	-1	4	-3
COc1ccc(NC(=O)C2CC(=O)OC23CCOC(C)(C)C3)cc1 (stereo unspecified)	4	0	-4	-12	i	9	1	-1
COC(=O)CSc1nc(NC(C)C)nc(N(C)C)n1	0	3	-19	-7	i	4	3	.
COc1ccccc1C1NC(=O)NC(C)=C1C(C)=O (stereo unspecified)	.	.	-2	.	i	1	4	-9
O=C(Nc1ccccc1NC(=O)c1ccccc1Cl)c1ccccc1Cl	6	-3	12	-2	i	-1	-2	-20
O=C1c2ccccc2C(=O)N1CCN1CCOCC1	-2	6	-19	-14	i	0	5	2
Cc1ccnc(N2C(=O)c3cccc4c([N+](=O)[O-])ccc(c34)C2=O)c1	14*	77*	-12	.	i	-289	0	121*	eIF4H inh retest=84*;PABP polyA inh retest=84*
CCCCNC(=O)N1CCN(C/C=C/c2ccccc2)CC1	-4	-4	.	5	i	-3	1	7

An unsorted share of the library, and some 2.9% of all compounds hit somewhere here.
